High-throughput results deposited in PubChem by ICCB-Longwood Screening Facility, Harvard Medical School.
VACV E9 pol inh = vaccinia E9 polymerase processive synthesis inhibitors, primary screen, biochemical, absorbance. 46,000 compounds, 0.94% hits. in vitro processive DNA synthesis, absorbance read-out; stronger effect = lower value; some inactives read as strong as hits. normalized absorbance, % (no concentration beside the values);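 active means replicate mean up to 90% and picked by the depositor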;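 further: 100% = median of the test wells of a plate; 100 nL library stock went into each well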
Starred values were filed as active, the others as inactive; & = joins results of further samples. A portion of the library, so the mix of outcomes need not match the whole.

A first look:
SMILES	VACV E9 pol inh
O=C(CSc1ncnc2c1oc1ccccc12)NCCc1ccccc1	101
CCOC(=O)C1=C(C)N=C2c3ccccc3C(=O)C2C1c1ccc(Br)cc1 (stereo not drawn)	100
O=C(NCCc1ccncc1)NC1CCCCC1	100
CC1CCN(CCCNC(=O)c2ccc(/C=C3\Oc4ccccc4NC3=O)cc2)CC1	70*
O=c1oc2cc3occ(-c4ccccc4)c3cc2c2c1CCC2	87
Brc1ccc(NC2=NCCCCC2)cc1	107

Main list, from the start:
SMILES	VACV E9 pol inh
O=C(CSc1ncnc2c1oc1ccccc12)NCCc1ccccc1	101
CCOC(=O)C1=C(C)N=C2c3ccccc3C(=O)C2C1c1ccc(Br)cc1 (stereo not drawn)	100
O=C(NCCc1ccncc1)NC1CCCCC1	100
CC1CCN(CCCNC(=O)c2ccc(/C=C3\Oc4ccccc4NC3=O)cc2)CC1	70*
O=c1oc2cc3occ(-c4ccccc4)c3cc2c2c1CCC2	87
Brc1ccc(NC2=NCCCCC2)cc1	107
Cc1ccc(SCC(=O)N(C)C2CCS(=O)(=O)C2)cc1 (stereo not drawn)	97
Cc1cc(NC(=O)Cc2cccc(C(F)(F)F)c2)n(-c2ccccn2)n1	92
COc1cccc(-c2csc3nc[nH]c(=O)c23)c1	99
COc1ccc(C2(C(=O)N3CCOCC3)CCCC2)cc1	110
N#CC1=C(N)OC2=C(C(=O)CCC2)C1Cc1ccccc1 (stereo not drawn)	99
O=C1NCCN1CCNS(=O)(=O)c1ccc(F)cc1	98
O=C(CSc1n[nH]c(=O)n1-c1ccccc1)c1ccc2c(c1)OCCO2	98
CN(C)C(=O)Oc1ccc[n+](C)c1	102
CCCCC1C(=O)NC(=S)NC1=O	100
CCn1c(=O)n(CC(=O)N(C)Cc2ccccc2)c(=O)c2ccccc21	108
CC(C)(Oc1ccc(Cl)cc1)C(=O)NCc1ccc2c(c1)OCO2	99
Cc1ccc(-c2ccc(OCC(=O)NC3CCCC3)cc2)cc1	98
CN1CCN(C(=O)CCCCl)CC1	103
O=c1c(-c2ccc3c(c2)OCCCO3)coc2cc(O)cc(O)c12	97
N#Cc1c(N)nc2c(sc3nc4c(cc32)CCC4)c1-c1ccc(Br)cc1	100
CC(O)(CN1CCOCC1)c1ccc(Br)cc1 (stereo not drawn)	102
CC(=O)Nc1cccc(NC(=O)N2CCOCC2)c1	93
Cc1c(CN(C)C)c2c(n1Cc1ccccc1)C(=O)c1ccc(Br)cc1-2	68*
O=c1cc(NCc2ccccc2)[nH]nc1-c1ccccc1	94
Following part:
SMILES	VACV E9 pol inh
CSCCC(C(=O)O)N1C(=O)/C(=C/c2ccc(O)cc2)SC1=S (stereo not drawn)	98
Cc1ccc(Cn2c(=N)n(CC(=O)O)c3ccccc32)cc1	100
COc1cc2c(cc1OC)C(C(=O)NC1CCCCCC1)C(c1cccs1)N(C)C2=O (stereo not drawn)	92
S=c1n(CN2CCCCC2)nc(-c2ccccc2)n1-c1ccccc1	100
CC(C)Cc1ccc(C(C)c2nc3ccccc3n2C)cc1 (stereo not drawn)	103
O=C1CC(c2ccccc2)CN1C(=O)c1cccnc1 (stereo not drawn)	100
Cc1cc2ncc(-c3ccnc(SCCS(=O)(=O)c4ccccc4)n3)c(C)n2n1	100
C=CCN(C1CCCCC1)S(=O)(=O)c1ccc2c(c1)oc(=O)n2C	103
C=CCNS(=O)(=O)c1cccc2cc(C(=O)O)c(O)cc12	100
CC12CN3CN(C1)CC(c1ccccc1)(C3)C2=O	100
N[C@H](C(=O)O)[C@@H]1CC(Cl)=NO1	100
CCc1ccc(OCC(=O)OCC(=O)N2CCc3ccccc32)cc1	100
c1ccc(Cc2nc3c4c5c(sc4ncn3n2)CCCC5)cc1	100
Cc1nc(SCc2noc(CSc3nc(C)c(C)c(C)c3C#N)n2)c(C#N)c(C)c1C	96
CC(=O)N[C@@H](CSC/C=C(\C)CC/C=C(\C)CCC=C(C)C)C(=O)O	100&101
Cc1ccc(NC(=O)C23CC4CC(CC(C4)C2)C3)cc1	99
COC(=O)CNS(=O)(=O)c1ccsc1C(=O)OC	99
COc1cc(NC(=S)N(C)C)c(OC)cc1Cl	100
COc1ccc(N2C(=O)c3ccc(Oc4ccccc4)cc3C2=O)cc1	100
CCC(C)c1ccc(NC(=O)C2CC=CCC2C(=O)O)cc1 (stereo not drawn)	99
Cc1cc(=O)n(Cc2ccccc2)[nH]1	100
CCN1CCN(C(=O)c2ccc(Cl)nc2)CC1	100
O=C(Nc1nc2ccccc2s1)c1cc(Cl)sc1Cl	101
Cc1ccc(-c2c3c(=O)n(C)c(=O)n(C)c3cn2C)cc1	100
CCCOC(=S)NC1OCC(O)C(O)C1O (stereo not drawn)	100

Part of the list above in order of count of non-hydrogen atoms, smallest number first:
SMILES	VACV E9 pol inh
CCCOC(=S)NC1OCC(O)C(O)C1O (stereo not drawn)	100
COC(=O)CNS(=O)(=O)c1ccsc1C(=O)OC	99
O=C(Nc1nc2ccccc2s1)c1cc(Cl)sc1Cl	101
CCC(C)c1ccc(NC(=O)C2CC=CCC2C(=O)O)cc1 (stereo not drawn)	99
c1ccc(Cc2nc3c4c5c(sc4ncn3n2)CCCC5)cc1	100
CC(=O)N[C@@H](CSC/C=C(\C)CC/C=C(\C)CCC=C(C)C)C(=O)O	100&101
COc1ccc(N2C(=O)c3ccc(Oc4ccccc4)cc3C2=O)cc1	100
Cc1cc2ncc(-c3ccnc(SCCS(=O)(=O)c4ccccc4)n3)c(C)n2n1	100
COc1cc2c(cc1OC)C(C(=O)NC1CCCCCC1)C(c1cccs1)N(C)C2=O (stereo not drawn)	92

Next section
SMILES	VACV E9 pol inh
O=C(NCCSc1ccccc1)c1ccc(Br)cc1	102
CC(C)(CNS(=O)(=O)c1ccc(Cl)cc1)OCc1ccccc1	97
CCOc1ccc2nc(NC(NC(=O)CC)(C(F)(F)F)C(F)(F)F)sc2c1	100
O=C(CCCOc1ccccc1)NC1CCCCC1	100
O=C1CC(c2ccccc2)CC(=O)C1CS(=O)(=O)c1ccccc1 (stereo not drawn)	104
O=S(=O)(c1ccc2oc3ccccc3c2c1)N1CCOCC1	93
CC(C)NCC(O)c1ccc(O)c(O)c1 (stereo not drawn)	100
O=S(=O)(c1ccc(-c2ccccn2)s1)N1CCC2(CC1)OCCO2	88
Cc1nnc(SCC(=O)Nc2ccccc2)n1N	102
CCOC(=O)c1c(C)oc2c1c(CN1CCN(c3ccccc3F)CC1)c(O)c1ccccc12	100
O=C(O)c1cc(NCc2ccccc2)ccc1N1CCOCC1	98
CC1=Nc2c(c(C)nn2-c2ccccc2)C(C(F)(F)F)(C(F)(F)F)O1	106
CC(C)c1ccc(NCC(O)COc2ccc(Cl)c(Cl)c2)cc1 (stereo not drawn)	92
CC(C)c1ccc(C(N)CC(=O)O)cc1 (stereo not drawn)	98
CCn1c(=O)cc(C(=O)OC)sc1=Nc1ccc(F)c(F)c1	104
CCN1CCC(N(Cc2ccco2)C(=O)NC2CCCC2)CC1	91
CC1(C)CN2C(=S)N(c3ccccc3)C(c3ccccc3)N2C1 (stereo not drawn)	98
O=C(O)C(Cc1c[nH]c2ccccc12)NC(=O)C12CC3CC(CC(C3)C1)C2 (stereo not drawn)	99
CCc1ccc(-c2nc(CSCC(=O)NCCc3ccccc3)c(C)o2)cc1	98
O=C(Cc1cccc2ccccc12)NCC1CCCO1 (stereo not drawn)	107
CCOC(=O)c1c(NC(=S)N2CCOCC2)sc(C)c1C	101
CCOC(=O)Cc1nn[nH]n1	100
CCOc1ncnc2c1sc1nc3c(cc12)COC(C)(C)C3	100
CCCn1c(CC)nc2ccccc21	101
CCC(=O)NCCSc1c(-c2ccccc2)[nH]c2ccccc12	100
Carrying on.
SMILES	VACV E9 pol inh
Cc1onc(-c2c(Cl)cccc2Cl)c1C(=O)Nc1ccc(N2CCCCC2)cc1	116
CC(NCc1cccnc1)C12CC3CC(CC(C3)C1)C2 (stereo not drawn)	100
CNc1nc(N2CCc3ccccc32)ncc1F	56*
CC(NC(=O)Cn1nc(-c2ccccc2)ccc1=O)c1ccccc1 (stereo not drawn)	90
CCSC1=C(C#N)C(c2cccc(Cl)c2Cl)C2=C(CCCC2=O)N1 (stereo not drawn)	99
CCCN(CCC)C1=C(C(=O)c2ccccc2)N(CC(N)=O)S(=O)(=O)c2ccccc21	98
Cc1ccc2nc3c(c(C(=O)O)c2c1)CC(C(C)(C)C)CC3 (stereo not drawn)	101
CCS(=O)c1nc2c(Br)cccc2[nH]1 (stereo not drawn)	94
CC1CCCN(C(=O)CSc2nc3ccccc3o2)C1 (stereo not drawn)	99
CC1(C)CC(=O)C(C=NCCN2CCNCC2)=C(O)C1	112
CCOc1nc(-c2ccccc2)nc(Cl)c1N	101
CCc1ccc(NC(=O)Cc2coc3ccc(C(C)C)cc23)cc1	102
CC(C)C12CN3CCN(CC(C3)C1=O)C2	101
Nc1c(C(=O)c2ccccc2)no[n+]1[O-]	100
Cc1ccc(S(=O)(=O)N(C)c2ccc(C(=O)N3CCCCC3)cc2)cc1	100
Cc1ccc(CN2C(=O)CSc3ccc(NC(=O)NCc4ccccc4)cc32)cc1	103
CCC(=O)Nc1nc(-c2ccccc2)cs1	99
CN(Cc1ccccc1)Cc1csc2c1CCCC2	89
O=C(Cc1cccc2ccccc12)Nc1cccnc1	98
Cc1cc2cc(CNC(=O)Cc3ccccc3)ccc2n1C	98
Cc1ccc(NC(=O)c2sc3nc4c(cc3c2N)CCCC4)cc1	100
O=C1NC(=O)C(=C/C=C/c2ccccc2)C(=O)N1	96
O=C(CCC(=O)c1ccccc1)Nc1ccc(-c2ccccc2)cc1	94
c1ccc(-c2ccc(-c3cn4ccccc4n3)cc2)cc1	100
COc1cccc(N(C(=O)c2ccccc2)C2C=CS(=O)(=O)C2)c1 (stereo not drawn)	102
Next results
SMILES	VACV E9 pol inh
CCCC12CN(C(=O)CC)CC(CCC)(CN(C(=O)CC)C1)C2=O	100
COc1cccc(Cn2c(=O)n(Cc3ccccc3)c(=O)c3cccnc32)c1	98
N#Cc1c(N)nc(SCC(=O)c2ccc3ccccc3c2)c(C#N)c1-c1cccc(F)c1	100
CCn1c(SCCOc2ccc(OC)cc2)nc2ccccc21	100
CCC(=O)n1nc(-c2ccccc2)nc1NCc1ccco1	106
CCOc1ccc(-n2c(C)nc3cc(C(=O)NCc4ccccc4Cl)ccc32)cc1	99
COc1cc(N2CN=c3s/c(=C\C=C\c4ccccc4)c(=O)n3C2)cc(OC)c1OC	101
O=C1C[C@@H]2[C@@H](CO)[C@H](OC(=O)c3ccc(-c4ccccc4)cc3)C[C@@H]2O1	100
Nc1cc(N)cc(C(=O)OCN2C(=O)c3ccccc3C2=O)c1	100
Cc1cc(=O)oc2cc(OCC(=O)C(C)(C)C)c(Cl)cc12	94
CC(C)(C)c1cc(O)cc(C(C)(C)C)c1	98
CCC(=O)Nc1nc2ccc3nc(SC)sc3c2s1	96
Cn1c(-c2ccco2)nn(C2CC(=O)C3OCC2O3)c1=S (stereo not drawn)	100
O=C(O)C1CCN(c2ncc(C(F)(F)F)cc2Cl)CC1	90
CCC(C)[C@@H](C(=O)NCc1ccccc1C)N1Cc2ccccc2C1=O (stereo partly drawn)	106
Cc1cc(NCn2ncc3ccccc3c2=O)ccc1Br	96
CCOC(=O)c1nn(-c2ccc(Cl)cc2)cc1O	102
CC(C)c1ccc(NS(=O)(=O)c2ccc(-n3cccn3)cc2)cc1	88
COc1ccc(C2=N/C(=C/c3ccco3)C(=O)O2)cc1OC	79
Cc1c(-c2nnnn2-c2ccccc2)cnc2ccccc12	102
Cc1snnc1C(=O)Oc1ccccc1-c1nnco1	97
Oc1ccccc1CN1CCCN(Cc2ccccc2O)C1	100
Cc1nn(CC(=O)NCC2CCCO2)c(=O)c2cc3occc3n12 (stereo not drawn)	103
C[N+]1(CC[N+]2(C)CCCCC2)CCCCC1	100
CN(C)c1cc(N=C2CCCN2c2ccccc2)c2ccccc2n1	100
New compounds follow:
SMILES	VACV E9 pol inh
O=C(NCC1CCCO1)C1c2ccccc2Oc2ccccc21 (stereo not drawn)	100
CN(C)c1nnc2c(Cl)cc(C(F)(F)F)cn12	88
NC(=O)c1ccc(NC(=O)COC(=O)Cc2ccc(-c3ccccc3)cc2)cc1	108
O=C(O)c1oc2ccccc2c1-n1cccc1	90
Cc1nc2cc(Cl)ccc2n1-c1ccccc1	104
Clc1ncn(CCOc2ccccc2)c1Cl	82
CCOc1ccc(CC(=O)NCCn2ccc3ccccc32)cc1	97
c1ccc(COc2ccccc2OCc2ccccc2)cc1	95
Cc1ccc(Cn2c(=O)n(CCC(=O)N3CCc4ccccc4C3)c(=O)c3ccccc32)cc1	104
CCN(C(=O)c1c(-c2c(Cl)cccc2Cl)noc1C)C(Cc1ccccc1)c1ccc(OC)cc1 (stereo not drawn)	98
Cc1ccc(-c2c(C(=O)N3CCCCC3)oc(=O)c3ccccc23)cc1	102
Cn1c(=O)[nH]c2nnc(-c3ccccn3)nc2c1=O	101
CC(O)(C#CCN1CCOCC1)c1ccccc1 (stereo not drawn)	102
CCC(O)C1=C(c2cccs2)Oc2ccccc2C1c1ccccc1C (stereo not drawn)	98
CC(C)CNC(=O)N1c2ccccc2Sc2ccccc21	100
O=C(NCc1ccccc1)c1cc(-c2ccccc2)c(N2CCOCC2)s1	107
Cc1[nH][nH]c(=O)c1CCCOc1ccccc1	100
O=C(Nc1sc2c(c1CN1CCOCC1)CCCC2)c1ccccc1	97
Cc1c(Cc2ccccc2)c(=O)oc2cc(OC3CCCCC3=O)ccc12 (stereo not drawn)	100
Cc1ccc2[nH]c3c(c2c1)CCC1C3=NNC1c1ccco1 (stereo not drawn)	100
CCN(CC)c1cc(Cl)nc(N)n1	115
Cc1cc(C)c(C)c(OCC(O)CNC(C)C)c1 (stereo not drawn)	108
O=C(Nc1ccc(Cl)cc1)N1N=C2c3ccccc3CCC2C1c1cccs1 (stereo not drawn)	106
COCCN1C(=O)c2ccccc2C(C(=O)NCCN(C)C)C1c1ccc(F)cc1 (stereo not drawn)	106
